# High-throughput results (PubChem)
# rRNA inh HTS – selective bacterial rRNA inhibition in E. coli. E. coli WT GFP vs humanized-ribosome RFP mutants, fluorescence, 24 h; active compounds read low; DMSO median 0, no signal -100. 350,000 compounds, 1.6% hits. GFP signal change (wild-type ribosome), % (concentration not given with the values);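 active means significant combined selectivity score with lowered wild-type GFP, culture density cut under 30%, mutant RFP and density less affected; inactive means any of these conditions unmet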; further: one replicate is shown; some compounds called inactive have numbers as strong as hits
# UCH37 DUB inh – inhibitors of human deubiquitinating enzyme UCH37; Q9Y5K5; purified proteasome/UCH37, Ub-AMC cleavage fluorescence; inhibition, % (concentration not given with the values); 330,000 compounds, 0.33% hits; AID 588478;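 active means mean of two replicates above 20%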;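 further: 0% = compound-free wells with enzyme and 100% = wells lacking proteasome; stock transfer was 100 nL into about 20 µL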
# Target sequence (Q9Y5K5 whole entry, looked up): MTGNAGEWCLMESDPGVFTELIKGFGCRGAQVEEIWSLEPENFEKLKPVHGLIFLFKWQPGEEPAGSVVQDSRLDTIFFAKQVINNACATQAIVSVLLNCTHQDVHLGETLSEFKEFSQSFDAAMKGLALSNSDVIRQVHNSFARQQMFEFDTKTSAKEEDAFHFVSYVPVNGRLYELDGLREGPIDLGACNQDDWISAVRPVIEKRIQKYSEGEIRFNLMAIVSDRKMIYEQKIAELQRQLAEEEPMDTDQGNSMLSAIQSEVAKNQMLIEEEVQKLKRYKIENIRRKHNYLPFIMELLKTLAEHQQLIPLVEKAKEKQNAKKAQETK
#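 System: Proteasome-associated human UCH37 deubiquitinase; Input: 0.15 nM proteasome in added enzyme buffer; Also added: Ub-AMC substrate from 1 µM stock; Incubation: 30 min compound-proteasome preincubation then 25 min substrate reaction, room temperature; Detection: fluorescence, ex 355 nm, em 460 nm; Read-out: % inhibition of Ub-AMC cleavage fluorescence; Benchmarks: no-proteasome and no-compound wells.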
# HNF4A DNA FP – change in binding of human HNF4 alpha to DNA | P41235 | HNF4a-FITC DNA binding, fluorescence polarization, 1 h | activity change, % at 10 µM | 360,000 compounds, 0.3% hits | AID 1224865; in the data active means activity change above about 30%, passing the limit was not always enough;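 further: controls were the assay level and a saturating level of protein; the project sought stronger binding though the title names inhibitors; some compounds called inactive have numbers as strong as hits; positive values seem to mean higher polarization but the record does not say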
# Ecoli growth – E. coli growth inhibition | Escherichia coli growth, OD600, 23 h; active compounds read low | 330,000 compounds, 0.21% hits | OD600 absorbance (concentration not given with the values);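 active means OD600 absorbance below the run mean of sample wells minus 3.6 SD, in any replicate, cut at about 0.56 in these data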;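 further: stock transfer was 300 nL into about 60 µL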
# B2AR ag – human beta-2 adrenergic receptor agonism by FAP. Am2.2-beta2AR cells, FAP receptor internalization, flow cytometry; reference of the scale not given here. AID 504454. P07550. response, % (test concentration not listed). 340,000 compounds, 0.43% hits;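 active means response above a set limit, near 3 SD of response in nonfluorescent compounds, cut at about 42% in these data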;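 further: stock transfer was 100 nL into about 11 µL; a reference agonist was the positive control; negative values mostly stem from fluorescent compounds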
# Target sequence (P07550 whole entry, looked up): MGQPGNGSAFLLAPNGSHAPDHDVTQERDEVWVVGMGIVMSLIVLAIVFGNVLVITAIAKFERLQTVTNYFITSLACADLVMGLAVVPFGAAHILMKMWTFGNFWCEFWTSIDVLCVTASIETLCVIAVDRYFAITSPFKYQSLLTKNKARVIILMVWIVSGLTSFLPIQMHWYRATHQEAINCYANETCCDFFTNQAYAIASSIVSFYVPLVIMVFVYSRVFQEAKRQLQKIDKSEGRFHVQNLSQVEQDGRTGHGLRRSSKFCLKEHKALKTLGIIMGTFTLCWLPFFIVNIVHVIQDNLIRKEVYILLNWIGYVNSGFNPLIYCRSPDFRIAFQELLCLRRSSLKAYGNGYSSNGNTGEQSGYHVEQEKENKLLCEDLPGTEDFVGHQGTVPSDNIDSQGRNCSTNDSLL
# FGF22 binding – FGF22 (human) thermal shift binding. Q9HCT0. recombinant FGF22 thermal shift, SYPRO orange fluorescence; percent of sucrose octasulfate shift, DMSO zero. calls only at 9.99 µM. 340,000 compounds, 1.5% hits. AID 651658;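 active means melting point raised past a set limit in the mean and every replicate; three in four hits are not shown here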
# ALR H2O2 inh – inhibitors of human sulfhydryl oxidase ALR | AID 485317 | P55789 | inhibition, % (no concentration beside the values) | purified ALR, DTT oxidation, H2O2 HRP-luminol luminescence | 290,000 compounds, 3.8% hits;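 active means mean and each replicate at 75% or more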;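 further: stock transfer was 7.5 nL into about 7.5 µL; 0% = neutral wells and 100% = wells with inactivated enzyme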
# Target sequence (P55789 whole entry, looked up): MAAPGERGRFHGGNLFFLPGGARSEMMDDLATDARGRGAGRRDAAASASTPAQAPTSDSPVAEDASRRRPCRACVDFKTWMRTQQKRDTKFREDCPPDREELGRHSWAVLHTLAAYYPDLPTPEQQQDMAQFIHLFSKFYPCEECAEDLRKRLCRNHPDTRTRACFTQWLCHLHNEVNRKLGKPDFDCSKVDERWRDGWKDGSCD
# rRNA inh HTS OD600 – also measured in rRNA inh HTS; calls as there; OD600 change, %; measured here: OD600 growth;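 optical density of the mix in the first replicate; 0 = DMSO median and -100 = no signal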
# rRNA inh HTS RFP – also measured in rRNA inh HTS; calls as there; RFP signal change, %; measured here: RFP humanized mutant strains;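 first replicate; 0 = DMSO median and -100 = no signal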
# * = called active by the depositor; i = inactive; . = not tested or not shown. The list is partial (hit frequency here may not be typical).
molecule	ALR H2O2 inh	B2AR ag	FGF22 binding	rRNA inh HTS OD600	HNF4A DNA FP	Ecoli growth	UCH37 DUB inh	rRNA inh HTS	rRNA inh HTS RFP
CCn1c(Sc2ccc(N)cc2Cl)nc2ccccc21	.	-1	.	.	6.0	0.63	-2.5	.	.
CN(CC1COc2ccccc2O1)C(=O)CCNS(=O)(=O)c1ccc(F)c(Cl)c1 (stereo not drawn)	.	.	i	-64	-1.8	.	.	-36	0.1
Cc1cc(C)n(-c2ccc(C(=O)Nc3ccc(N4CCOCC4)cc3)cc2)n1	-1	-11	.	.	-0.9	0.73	6.5	.	.
CN(CC(=O)Nc1ccccc1C(F)(F)F)C(=O)CCc1nc2sc3c(c2c(=O)[nH]1)CCCC3	-9	-4	i	17	3.1	0.65	-3.1	11	3.0
N#Cc1ccc(N2CCCNCC2)nc1	-6	-7	i	14	4.2	0.64	-0.6	8	1.4
O=C(O)c1cc(N=Cc2c(O)c3ccccc3oc2=O)ccc1O	58	-8	i	15	3.0	0.67	-65	5	-0.8
COc1ccc(C(CNC(=O)c2cccc(S(=O)(=O)Nc3ccccc3OC)c2)N2CCCC2)cc1 (stereo not drawn)	-1	7	i	5	5.2	0.68	-0.2	5	2.2
COc1ccc(/C=N/N=C2/NC(=O)C(CC(=O)NC(C)C)S2)cc1 (stereo not drawn)	-1	4	i	11	1.2	.	.	11	-1.3
CCOc1ccc(C2=[N+]([O-])C(C)(C)N(O)C2(C)C)cc1	2	-14	.	.	-3.7	0.73	2.8	.	.
O=C(NCCCN1CCCCC1)C1CCN(c2ncnc3c2nc2n3CCCCC2)CC1	-3	-6	i	.	-1.4	0.67	5.0	.	.
CCN(CC)S(=O)(=O)c1ccc2c(c1)nc(CCC(=O)O)n2C	.	-2	i	9	8.8	0.69	1.8	9	4.9
CCOC(=O)c1ccc(NC2OC(=O)c3ccccc32)cc1 (stereo not drawn)	-4	6	.	.	3.4	0.73	6.4	.	.
CCNc1nc(NC(C)C)nc(N(C)C#N)n1	-7	-11	i	-2	3.6	0.7	1.9	1	1.9
O=C(O)Cn1cc(C(=S)N2CCOCC2)c2ccccc21	98*	6	.	.	-1.5	0.65	3.8	.	.
O=c1[nH]c2ccccc2n1CCCSCCCn1c(=O)[nH]c2ccccc21	-11	-3	.	.	0.3	0.7	6.4	.	.
CC[C@@]12C(=O)N(c3ccccc3)C(=O)N1[C@H](c1ccc(OC)cc1)[C@@H]1C(=O)N(C(C)(C)C)C(=O)[C@@H]12	7	0	i	-1	3.2	.	5.2	-5	6.1
Cc1[nH]c2ccccc2c1/C=N/NC(=O)c1cccc(S(=O)(=O)Nc2ccccc2Cl)c1	0	17	.	.	10	.	.	.	.
CC(Oc1ccc(C(C)(C)C)cc1)C(=O)NC1CC(C)(C)NC(C)(C)C1 (stereo not drawn)	0	5	i	-11	1.3	0.67	0.7	6	-0.5
NC(=O)c1ccc(NC(=O)Cn2c(=O)n(-c3ccccc3)c(=O)c3oc4ccccc4c32)cc1	-16	-5	.	-8	5.0	0.68	0.7	-6	-4.9
CC(C)C(C(=O)NCC1CCCO1)N(CC1CCCO1)C(=O)CNS(=O)(=O)c1ccccc1 (stereo not drawn)	5	12	i	5	3.5	0.67	-0.3	5	0.1
Cc1ccc(NC(=O)CCC(=O)n2nc(C)cc2C)c(C)c1	-7	1	i	10	-5.0	0.69	3.1	20	3.9
CCC(Cc1ccccc1)NC(=O)Cn1ncc2ccsc2c1=O (stereo not drawn)	1	0	i	8	-0.7	0.72	5.2	12	-0.5
Cc1noc(C)c1COc1ccc(C(=O)NCC(c2c(F)cccc2Cl)N(C)C)cc1 (stereo not drawn)	.	0	i	2	2.1	0.69	-0.7	1	0.9
COC(=O)c1ccc(N2C(c3cc(OC)cc(OC)c3)=Cc3ccc(-c4cccnc4)cc3C2CC(=O)C2CC2)cc1 (stereo not drawn)	.	.	i	16	0.1	.	.	6	2.4
Cc1nc(NC(=O)c2ccccc2)sc1-c1cc(C(=O)N2CCOCC2)nn1Cc1ccccc1	.	.	i	32	1.3	.	.	14	3.6
O=C(c1ccc([N+](=O)[O-])cc1)c1cc2ccc(O)cc2oc1=O	10	30	i	2	0.2	0.68	6.2	3	2.8
O=C(Cn1c(NCCCO)nc2ccccc21)c1ccc(F)cc1	0	-2	i	8	1.1	.	.	16	2.8
Cn1cncc1C#Cc1c(-c2ccsc2)sc2ccccc12	2	20	i	-21	0.6	0.71	-20	-13	2.9
Cc1onc(-c2c(F)cccc2Cl)c1C(=O)Nc1nc2ccccc2[nH]1	4	6	.	.	1.9	0.75	2.8	.	.
O=C(COC(=O)c1c[nH]c2ccccc12)NC1CCCCC1	33	-6	i	-2	-5.8	.	.	-10	-1.2
NC(=O)CC1NC(=O)c2ccccc21 (stereo not drawn)	-1	-4	.	.	-0.2	0.68	4.4	.	.
COc1ccc(NC(=O)N2CCN(c3ccc([N+](=O)[O-])cc3)CC2)cc1OC	-35	2	.	-31	6.0	0.7	8.7	-34	-5.7
COc1cccc(C(C)(O)c2nc(-c3cccc(F)c3)cs2)c1 (stereo not drawn)	.	.	i	-83	1.3	.	.	-62	-21
COC(=O)/C=C/c1cnc2ccccc2c1	-4	-11	i	3	-0.7	0.62	-2.1	7	-2.5
CCC(c1nnnn1-c1ccc2c(c1)OCCO2)N1CCN(C/C=C/c2ccccc2)CC1 (stereo not drawn)	.	.	i	-22	2.1	.	.	1	12
CN(C)C(=S)NC(=NCc1ccc([N+](=O)[O-])cc1)c1ccccc1	-3	0	i	17	-0.2	0.71	1.1	10	3.6
O=c1c2ccccc2[nH]c(=S)n1Cc1ccccc1	-1	-6	i	-3	2.8	0.74	6.8	-2	-4.2
COc1cc(C(=O)c2ccccc2C(=O)O)c(OC)c2c1CCCC2	.	-4	i	-4	-1.4	.	.	-2	-3.4
CCOc1ccc(C(=O)NN2C(=O)C3C4C=CC(O4)C3C2=O)cc1 (stereo not drawn)	-6	-2	.	.	-2.5	0.66	0.6	.	.
O=C(O)c1ccc(CSc2nnc(-c3ccncc3)n2-c2ccc(Br)cc2)cc1	1	8	i	0	1.6	0.68	3.3	5	-0.9
CN(CC(=O)Nc1ccccc1Cl)C(=O)c1cc(C2CC2)nn1-c1ccccc1	2	6	i	-15	-0.3	0.68	3.4	-1	1.1
COc1cc2c(cc1NC(=O)CSc1nnc(Cc3cccs3)n1C)oc1ccccc12	4	-2	.	.	-1.5	0.72	2.4	.	.
Cc1cc(N)ccc1NC(=O)c1ccccc1	98*	1	.	.	1.0	0.68	2.2	.	.
CCO[C@H]1OC(C(=O)N2CCN(Cc3ccc4c(c3)OCO4)CC2)=C[C@@H](c2ccccc2)[C@@H]1CCCO	-6	0	i	-25	1.7	.	3.7	-28	-2.7
CCCC(=O)N1CCCC1(C)C(=O)Nc1ccc2c(c1)CCN2C(C)=O (stereo not drawn)	.	.	i	11	-4.6	.	.	2	-0.1
CCOc1ccccc1C(=O)N(Cc1ccccc1)Cc1cc2cc3c(cc2[nH]c1=O)OCCO3	-2	14	.	.	1.0	0.72	-50	.	.
CC(C)(C)CC(=O)O/N=C(\N)c1ccncc1	1	2	i	14	4.0	0.74	2.2	15	0.4
COCc1[nH]nc2c1C(c1ccsc1)C(C#N)=C(N)O2 (stereo not drawn)	4	-3	.	.	-0.8	0.72	5.3	.	.
CCOC(=O)/C=C(/C)N1N=C(c2ccc(OC)cc2)CC1c1cccc([N+](=O)[O-])c1 (stereo not drawn)	4	0	.	.	0.5	0.67	6.0	.	.
O=[N+]([O-])c1ccc(N2CCN(S(=O)(=O)c3ccccc3)CC2)cc1	0	6	i	2	0.9	0.7	4.1	1	0.8
CS(=O)(=O)N(CC(=O)NCCSCc1ccco1)c1ccc2c(c1)OCO2	1	-3	i	4	1.6	0.64	1.4	2	1.6
O=C(Nc1ncc(Br)s1)C(Cc1ccccc1)n1cccc1 (stereo not drawn)	4	8	i	-29	-1.3	0.74	0.3	6	2.4
c1ccc(-c2nnc(-c3ccccc3)nn2)cc1	1	2	i	-1	0.4	0.65	6.8	-7	-2.6
O=C(O)c1cccc(-c2csc(C(O)c3ccc(F)cc3)n2)c1 (stereo not drawn)	.	.	i	-12	0.8	.	.	1	-1.3
COC(=O)CSc1nnc(CNC(=O)c2ccc(OC)cc2OC)n1C	-1	-1	.	.	-0.7	0.7	3.9	.	.
O=C(NCCCN1CCOCC1)c1cccc(S(=O)(=O)NCc2ccccc2)c1	-1	1	i	6	-2.8	0.7	-0.4	7	-3.8

# (cont.)
molecule	ALR H2O2 inh	B2AR ag	FGF22 binding	rRNA inh HTS OD600	HNF4A DNA FP	Ecoli growth	UCH37 DUB inh	rRNA inh HTS	rRNA inh HTS RFP
COc1ccc(-c2c(-c3ccsc3)oc3ccc(N4CCOCC4)cc23)cc1	-2	3	i	4	-1.8	0.71	-95	10	4.2
CCCCC(=O)Nc1ccc2c(c1)nc(CCN1CCOCC1)n2C	.	4	.	.	0.9	0.7	3.7	.	.
CCCNC(=O)C1CC(=O)N(c2ccc(OCc3ccc(F)cc3)cc2)C1 (stereo not drawn)	4	-10	i	1	2.9	0.68	1.0	2	-1.5
CCN1C(=Nc2ccc(Cl)cc2)SC/C1=C\C(=O)OC	-5	7	.	-17	1.2	0.66	2.7	-3	-1.4
Cc1cccc(C)c1OCC(O)CNS(=O)(=O)c1ccccc1C(=O)N1CCOCC1 (stereo not drawn)	.	3	.	.	2.7	0.77	4.1	.	.
CCOc1cc(C2NN=C(c3ccc(C)cc3)S2)ccc1O (stereo not drawn)	37	-4	.	.	2.5	0.62	-23	.	.
COc1ccccc1C(=O)OCC(=O)NC12CC3CC(CC(C3)C1)C2	.	-2	i	-2	-2.1	0.66	4.7	0	-1.1
Cc1cc(=O)oc2c(C(=O)c3ccccc3)c(OCC(N)=O)ccc12	.	0	i	13	2.3	0.68	4.5	4	0.5

# Structural class: the entries above containing two or more sulfur atoms.
molecule	ALR H2O2 inh	B2AR ag	FGF22 binding	rRNA inh HTS OD600	HNF4A DNA FP	Ecoli growth	UCH37 DUB inh	rRNA inh HTS	rRNA inh HTS RFP
Cn1cncc1C#Cc1c(-c2ccsc2)sc2ccccc12	2	20	i	-21	0.6	0.71	-20	-13	2.9
COc1cc2c(cc1NC(=O)CSc1nnc(Cc3cccs3)n1C)oc1ccccc12	4	-2	.	.	-1.5	0.72	2.4	.	.
CS(=O)(=O)N(CC(=O)NCCSCc1ccco1)c1ccc2c(c1)OCO2	1	-3	i	4	1.6	0.64	1.4	2	1.6

# Additional structures:
molecule	ALR H2O2 inh	B2AR ag	FGF22 binding	rRNA inh HTS OD600	HNF4A DNA FP	Ecoli growth	UCH37 DUB inh	rRNA inh HTS	rRNA inh HTS RFP
CCc1nn(CC(=O)N2CCN(CC)CC2)c(=O)c2cccn12	2	2	i	12	2.3	0.69	1.9	10	-2.3
COC(=O)c1cc2c(s1)-c1ccc(OC)cc1CC2	-4	4	i	-25	3.5	0.64	i	-13	-2.4
CC1Cc2ccccc2N1C(=O)CSc1nc2c(c(=O)n(C)c(=O)n2C)n1Cc1ccc(F)cc1 (stereo not drawn)	3	14	.	.	2.2	0.77	-1.7	.	.
CSc1ncc(C(=O)NCCCc2ccccc2)c(C)n1	-9	-20	i	-3	1.1	0.66	-7.6	1	-0.9
